# HIV Env fusion – inhibitors of HIV-1 Env-driven cell-cell fusion, primary screen, HeLa-JRFL effector, CEM21 target cells, luciferase; inhibition, % at 12.3 µM; 1.1% of 360,000 active;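 active means mean replicate inhibition score of at least 50 and every replicate individually at or above 50; inconclusive means only one of the two criteria met; inactive means mean below 50 and not all replicates reaching 50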;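 further: 0% = plate neutral controls and 100% = maraviroc near 300 nM; one replicate is shown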
# eIF4H FP inh – human eIF4H binding inhibitors, primary screen, translation initiation inhibitor project, biochemical, uHTS, fluorescence polarization; eIF4H fluorescence polarization binding assay; inhibition, % at 35 µM; 0.94% of 290,000 active; AID 2012, 2009;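 active means 50% or more with normal probe brightness, or confirmed in later tests; inconclusive means above 50% with abnormal brightness, or retests that disagree; inactive means below 50% or failed in later tests; about a fifth of its hits are not listed in these tables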;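 further: calls also rest on retests at 20 µM and on dose response follow-up; 0% = protein and probe with vehicle and 100% = probe without protein; strong numbers were not always called active; many hits fall short of the cut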
# MT1-MMP act inh – blockers of MT1-MMP proenzyme processing, primary screen, HT1080 RFP-PRO-GFP cells, GFP/RFP fluorescence. Matrix metalloproteinase-14 (Homo sapiens), P50281. GFP/RFP ratio fluorescence, overnight; percent of plate control window, DMSO zero. GFP/RFP ratio change, % at 20 µM. 0.061% of 360,000 active. AID 651647, 2012;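 active means GFP/RFP ratio change of at least 30% with cell ATP level not reduced by more than half and red fluorescence within 50% of control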; further: strong numbers were not always called active
#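 Assay system: HT1080 cells carrying an RFP-PRO-GFP reporter | Dosing: Single dose of 20 µM compound, 1% DMSO final | Incubation: Cells overnight before dosing, compound overnight, 37 °C, 5% CO2 | Evaluation: GFP/RFP fluorescence ratio | Control set: DMSO and RFP-L50D-GFP cell wells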
# PABP FP inh – PABP poly(A) RNA binding inhibitors, primary screen, biochemical, fluorescence polarization, uHTS; inhibition, % at 35 µM; 1% of 290,000 active; AID 2014, 2009;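 active means 50% or more with normal probe brightness, or confirmed in later tests; inconclusive means above 50% with abnormal brightness, or retests that disagree; inactive means below 50% or failed in later tests; about a fifth of its hits are not listed in these tables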;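 further: calls also rest on retests at 20 µM and on dose response follow-up; controls were probe without protein and protein plus probe with vehicle; some compounds called inactive have numbers as strong as hits; many hits fall short of the cut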
# Yeast UUG start – modulators of yeast start codon fidelity, primary screen, whole organism, S. cerevisiae, single point, plate reader; S. cerevisiae UUG-firefly luciferase reporter, luminescence/redox ratio; activity score, % at 18.7 µM; 0.13% of 350,000 active; AID 602363, 2012;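 active means replicate mean at a twofold rise or more, about +100% in these data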;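 further: firefly luciferase made from a UUG start codon reports start codon fidelity; reporter light over untreated wells divided by growth signal over untreated wells; some hits fall short of that in this replicate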
# CSC inhib – cancer stem cell viability inhibitors, primary screen, luminescence; AID 2717, 2010; cancer stem cell-like cells viability; 1.1% of 300,000 active; inhibition, % at 7.5 µM;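 active means mean at 75% or more and at least half the replicates too; inconclusive means mean and replicates disagree; tested in HMLE shEcad cells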;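 further: 0% = median of negative and 100% = median of positive control wells; the first replicate is given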
# Rce1 inhib – yeast Rce1p protease inhibitors, primary screen, biochemical, fluorescence, cell-free homogeneous; yeast membranes, quenched prenylated peptide cleavage fluorescence; calls only; 0.27% of 290,000 active;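 active means fall in fluorescence gain of 50% or more versus controls, with final raw signal at or below 3038400; inconclusive means same 50% fall but final raw signal above 3038400; inactive means fall in fluorescence gain under 50%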;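 further: plate controls were neutral control wells for no effect and wells lacking membranes for full effect; tested at 10 µM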
# Target sequence (Q03530 whole entry, looked up): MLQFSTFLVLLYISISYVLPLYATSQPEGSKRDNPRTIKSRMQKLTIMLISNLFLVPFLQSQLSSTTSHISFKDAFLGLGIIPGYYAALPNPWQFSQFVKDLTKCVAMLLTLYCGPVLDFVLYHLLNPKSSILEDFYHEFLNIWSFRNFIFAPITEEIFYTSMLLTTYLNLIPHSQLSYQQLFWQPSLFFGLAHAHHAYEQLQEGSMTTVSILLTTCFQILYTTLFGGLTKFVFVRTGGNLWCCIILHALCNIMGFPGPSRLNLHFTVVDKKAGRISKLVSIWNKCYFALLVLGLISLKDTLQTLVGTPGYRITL
# eIF4H FP inh retest – recorded beside eIF4H FP inh, whose call it bears; inhibition, %; compound at 20 µM; confirmation average;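 mean of two retest wells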
# PABP FP inh retest – also measured in PABP FP inh; calls as there; inhibition, %; compound at 20 µM; confirmation repeats;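 mean of two retest wells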
# MT1-MMP act inh RFP – further read-out of MT1-MMP act inh, marked with its call; RFP signal change, %; measured here: RFP expression control read;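 0 = vehicle wells; hits needed this value within 50% of zero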
# Active calls of the source: *; i = inactive; u = inconclusive; x = no result given; + = active, no number.
SMILES,HIV Env fusion,eIF4H FP inh,MT1-MMP act inh,MT1-MMP act inh RFP,PABP FP inh,Yeast UUG start,CSC inhib,Rce1 inhib,others
O=C(Nc1ccc(Cl)cc1)Nc1ccon1,x,2,0,-2,4,-11,x,i,
Cc1ccc(Nc2nc(N/N=C/c3c[nH]c4ccccc34)nc(N3CCOCC3)n2)cc1,9,1,3,-10,1,x,x,i,
Cc1cc(C)c2c(N)c(C(=O)Nc3cccc(C)c3C)sc2n1,-13,-5,-1,-1,-2,-16,29,i,
CCN(CC)C(=N)N1c2ccccc2CCC1C (centres undefined),10,22,-2,0,8,-18,0,i,
O=C(OC1CCOC1=O)c1cc(-c2ccc(Cl)cc2)nc2ccccc12 (centres undefined),17,-8,6,2,-17,-19,3,i,
Cc1cc(NS(=O)(=O)c2ccc(NC(=O)CCCOc3ccccc3C)cc2)no1,-6,-4,0,0,3,-4,-7,i,
O=C(Cc1nnc(NC(=O)Nc2ccc(Cl)cc2)s1)NCc1ccccc1,x,0,-2,2,-4,x,-2,i,
COC(=O)c1ccc(/C=C2/SC(=S)N(CCCC(=O)Nc3ccccn3)C2=O)cc1,39,-9,-1,-1,35,x,63,i,
O=C(c1cc(-c2ccc(Cl)cc2)nc2ccccc12)N1CCOCC1,-6,x,3,1,x,-12,-15,i,
CCN(CC)c1ccc(C(=O)OCC(=O)NC(C)(C)C)cc1,2,0,1,-3,-3,-8,-4,i,
Cc1ccc(S(=O)(=O)N(CC(=O)Nc2ccccc2C(=O)O)c2cccc(Cl)c2C)cc1,-8,18,2,0,-6,x,37,i,
O=C(C[C@H]1C[C@H](C(=O)N2CCOCC2)[C@@]2(CCC3CCCC3)c3[nH]c4ccc(Cl)cc4c3CCN2C1=O)NCCCn1ccnc1,-10,x,-1,-6,x,0,x,x,
C=C(C)C(=O)Nc1cccc(C2=NOC3(C2)C[C@@H](C(N)=O)N(C(=O)c2cc([N+](=O)[O-])cc([N+](=O)[O-])c2C)C3)c1 (some centres undefined),2,89,6,3,42,5,-6,i,eIF4H FP inh retest=50;PABP FP inh retest=17
COc1ccc(C(=O)Nc2ccccc2C(=O)NCc2cccnc2)cc1,u,9,-3,0,-9,-7,1,i,
Cc1ccc2oc3c(SCc4nc5ccccc5[nH]4)nc(C)nc3c2c1,-1,x,3,4,x,-26,x,x,
CCSc1nnc(NC(=O)CCCOc2ccc(C)cc2)s1,4,1,x,x,-7,x,-5,i,
Cc1cc(Cl)ccc1N1C(=O)CC(SCCC(=O)O)C1=O (centres undefined),x,-7,3,4,9,-22,-15,i,
CCOC(=O)c1ccccc1NC(=O)N[C@@H](C)C(=O)OC,x,-1,9,1,-1,-12,0,i,
O=C(Nc1ccc2c(c1)OCCO2)c1ccccc1Cl,-85,x,-5,1,x,-40,x,x,
CC(C)c1ccc(S(=O)(=O)N2CCN(C(=O)CCNS(=O)(=O)c3ccccc3F)CC2)cc1,12,x,1,-2,x,3,-11,i,
CC(C)Oc1ccc(CCC(=O)NNC(=O)c2ccccc2C(=O)O)cc1,3,-8,1,7,5,11,-14,i,
CCc1nccn1S(=O)(=O)c1ccc2ccccc2c1,x,-1,5,6,2,-15,-7,i,
COc1ccccc1S(=O)(=O)Nc1ccc2nc(C)sc2c1,-18,x,2,-3,x,-22,5,x,
N#Cc1cn(Cc2ccncc2)c(=O)[nH]c1=O,6,-2,0,2,-2,8,-2,i,
CC(C)OC(=O)C(C#N)c1nc2ccccc2nc1N1CCN(Cc2ccccc2)CC1 (centres undefined),x,7,-27,-4,12,-13,-15,i,
CCCCNc1c(-c2cccc(-c3ccc(OC)cc3)c2)nc2ccc(C)cn12,-53,x,2,-13,x,-13,114*,i,
CCCCSc1nnc2[nH]c(=O)cc(N)n12,-134,-1,3,0,-3,-9,x,i,
Cc1cc(C)n(CCNC(=O)c2ccc3c(c2)OCO3)n1,-15,6,1,3,8,-6,-15,x,
O=C(CCn1cccc1)Nc1cc(F)ccc1F,x,-8,0,2,-4,-21,-8,i,
COc1ccc(-n2c(=O)c3c4c(sc3n3c(=S)[nH]nc23)CCCC4)cc1,12,-11,-3,-2,-9,x,-9,i,
CC(C(=O)O)N1C(=O)c2ccccc2C1=O (centres undefined),-4,4,0,2,4,-21,-15,i,
COc1ccc(NC(=O)C2CCN(S(C)(=O)=O)CC2)c(OC)c1,6,-6,0,4,2,-10,-9,i,
CN(C(=O)c1ccc(NC(=O)Cc2cccc(NC(=O)C3CCN(C(=O)C4CCCC4)CC3)c2)cc1)C1CCCC1,5,x,-1,-2,x,2,-2,x,
CC1CCC2C(=O)N(c3ccccc3OC(=O)c3ccccc3F)C(=O)C2C1 (centres undefined),-11,4,-7,-5,-9,-6,-3,i,
COc1ccc(N2C(=O)C3C4C=CC(C4)C3C2=O)c([N+](=O)[O-])c1 (centres undefined),5,-11,3,6,8,x,-3,i,
CN(C(=O)CSc1nncc2ccccc12)C1CCCCC1,7,10,-1,5,6,x,-2,i,
COCc1c(C(=O)Nc2nc(C)cs2)oc2ccccc12,-58,-13,-5,-1,3,x,-8,i,
CCN(CC)S(=O)(=O)c1csc(C(=O)Nc2ccccn2)c1,-84,-3,3,-2,-8,-4,-4,i,
O=C(Nc1cccc(Cl)c1Cl)c1ccccc1NC(=O)C1CC=CCC1C(=O)O (centres undefined),-35,-14,-3,1,-4,17,-2,i,
C/C(=N\NC(=O)c1c(Br)c(C)nn1C)c1ccc(NC(=O)C(C)Oc2ccc(Cl)cc2C)cc1 (centres undefined),x,4,2,-11,-4,-7,55,i,

# Reprinted at random: 4 compounds from above.
SMILES,HIV Env fusion,eIF4H FP inh,MT1-MMP act inh,MT1-MMP act inh RFP,PABP FP inh,Yeast UUG start,CSC inhib,Rce1 inhib,others
COc1ccccc1S(=O)(=O)Nc1ccc2nc(C)sc2c1,-18,x,2,-3,x,-22,5,x,
CCc1nccn1S(=O)(=O)c1ccc2ccccc2c1,x,-1,5,6,2,-15,-7,i,
CC1CCC2C(=O)N(c3ccccc3OC(=O)c3ccccc3F)C(=O)C2C1 (centres undefined),-11,4,-7,-5,-9,-6,-3,i,
CN(C(=O)CSc1nncc2ccccc12)C1CCCCC1,7,10,-1,5,6,x,-2,i,

# Remaining list, next part.
SMILES,HIV Env fusion,eIF4H FP inh,MT1-MMP act inh,MT1-MMP act inh RFP,PABP FP inh,Yeast UUG start,CSC inhib,Rce1 inhib,others
O=C(COc1ncnc2cc([N+](=O)[O-])ccc12)NC(=O)NC1CCCCC1,22,11,1,-1,-9,7,-6,+,
Cc1cc(N)n(-c2nc(-c3cccnc3)nc3ccccc23)n1,x,-15,-2,0,-6,-26,-3,i,
CCCc1nc2ccccc2n1CC(O)COc1ccc(NC(C)=O)cc1 (centres undefined),6,-6,0,2,-2,x,-1,x,
CN(C(=O)CC1C(=O)NCCN1Cc1cccc(F)c1F)C1CCOCC1 (centres undefined),19,-4,-2,0,-6,-13,0,i,
NS(=O)(=O)c1ccc(NC(=O)CNC(=O)c2ccc3c(c2)OCO3)cc1,17,x,-2,4,x,-12,-15,x,
O=C(N/N=C/c1cn(-c2cccs2)nc1-c1ccccc1)c1ccc(O)cc1,17,-7,4,-1,38,x,u,i,
CCCc1cc(=O)[nH]c(SCC(=O)Nc2cc(S(=O)(=O)N3CCCCC3)ccc2C)n1,-1,x,-12,-3,x,-1,x,x,
COCCCn1c(C23CC4CC(CC(C4)C2)C3)n[nH]c1=S,21,5,1,-4,1,-20,4,i,
CCCc1ncc(C(O)c2ccccc2OC)n1C (centres undefined),10,-3,0,3,11,-13,-6,i,
COc1ccc(-c2cc(=O)oc3cc(OCc4nn[nH]n4)ccc23)cc1,-38,-6,-1,6,7,-13,-2,i,
CCOC(=O)c1c(/N=C/c2cc(C)ccc2O)sc2c1CCC2,-11,11,-5,-2,5,x,-5,i,
CNC(=S)Nc1ccc(C(N)=O)cc1,7,-12,-1,1,-7,0,-9,i,
Cc1cc(Nc2cccc(F)c2)n2c(n1)nc1ccccc12,x,5,0,-2,-5,-16,0,i,
NNC(=O)c1ccc(CSc2nc3ccccc3[nH]2)cc1,0,-2,-6,1,1,x,2,i,
O=C(COC(=O)CN1C(=O)C2CCCCC2C1=O)Nc1ccc(F)c(F)c1F (centres undefined),x,x,0,3,x,-24,-27,x,
CC(C)NC(=O)C1(C)CCN1C(=O)C1(c2ccccc2)CCCC1 (centres undefined),-1,x,3,1,x,-15,x,x,
Cc1nc2c(F)c(F)c(C(F)(F)F)c(F)c2[nH]1,i,-6,-1,-4,3,12,-3,i,
CCOC(=O)N1CCN(C(=O)c2c[nH]c3ccc(S(=O)(=O)N(C)c4ccccc4C)cc3c2=O)CC1,-1,-13,0,-5,-2,1,-12,i,
CC(O)c1nc2ccccc2n1CCCc1ccccc1 (centres undefined),-19,12,1,3,3,-20,-15,i,
O=C(COc1ccc(Cl)cc1Cl)OCC(=O)N1CCCc2ccccc21,16,-6,-4,-1,-6,x,-6,i,
Cc1ccc(/C=N/NC(=O)c2ccc3nc[nH]c3c2)s1,-3,-16,2,2,-6,x,1,i,
CC(O)(c1cccnc1)c1nc(-c2cc(F)cc(F)c2)cs1 (centres undefined),4,x,0,-3,x,3,x,x,
CC(C)c1cc[n+](-c2nc([O-])sc2C=O)cc1,x,25,-5,7,-13,x,-10,i,
COc1ccc(CN2CCNC(=O)C2CC(=O)N(C)CCCN2CCOCC2)cc1C (centres undefined),-5,-5,-1,-2,6,-8,-5,i,
O=C(CSc1nc2ncccc2[nH]1)c1ccc(F)cc1,x,1,x,x,3,-14,14,i,
Cc1cccc(OC(=O)c2cncc(Br)c2)c1,-1,0,-1,3,11,x,-19,x,
CCOC(=O)Nc1nnc(/C=C/c2ccc(OC)cc2)s1,13,-7,-1,-2,4,x,x,i,
O=C(NCC(c1ccccc1)N1CCCC1)C1CCN(C(=O)Nc2ccccc2)CC1 (centres undefined),-21,x,0,0,x,-11,x,x,
Cc1cnc(NC(=O)CSc2nnc(COc3ccccc3)o2)s1,-18,-5,1,4,5,x,-4,i,
c1ccc(C2(CN3CCNC[C@@H]3CC3CCCCC3)CC2)cc1,-5,x,-1,2,x,9,0,x,
O=C(CSc1nc2c(c(=O)n1-c1ccc(F)cc1)SCC2)NCc1ccco1,-7,2,-1,5,8,8,3,x,
N#Cc1c(N)nc2c(c1N)CC(=O)N2c1ccc(Cl)cc1,x,31,1,4,41,-14,-1,i,
CC(=O)N(C)Cc1ccc(C(=O)CCl)cc1,0,-4,0,3,-9,x,-2,i,
CC(C)CC(N)C(=O)OCc1ccc([N+](=O)[O-])cc1 (centres undefined),-15,-3,0,1,-1,x,-4,i,
O=C1NCC(=O)N2CCC[C@@H]12,x,x,1,2,x,-23,4,i,
O=C1C=C(c2ccccc2Oc2ccccc2)C[C@@H](c2ccc(F)cc2)C1,22,x,-3,-9,x,-13,x,x,
O=C(Nc1nc(-c2ccc3c(c2)OCCO3)cs1)c1ccc(S(=O)(=O)N2CCCCC2)cc1,x,-9,-7,-20,-4,-5,5,i,
O=S1(=O)c2c(F)cccc2O[C@@H](COCc2ccccc2)CN1CCc1ccc(F)cc1,36,x,-4,-7,x,-7,x,x,
